Screening results from PubChem BioAssay.
HNF4A DNA FP: change in binding of human HNF4A to DNA, primary screen, biochemical, fluorescence polarization, FITC-DNA; 1 h; activity change, % at 10 µM; Hepatocyte nuclear factor 4-alpha (Homo sapiens), P41235; AID 1224865, 2016; 360,000 compounds, 0.3% hits; in the data active = activity change above about 30%, passing the limit was not always enough;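 also: controls were the assay level and a saturating level of protein; the project sought stronger binding though the title names inhibitors; some compounds called inactive have numbers as strong as hits; positive values seem to mean higher polarization but the record does not say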
Target sequence (P41235 whole entry, looked up): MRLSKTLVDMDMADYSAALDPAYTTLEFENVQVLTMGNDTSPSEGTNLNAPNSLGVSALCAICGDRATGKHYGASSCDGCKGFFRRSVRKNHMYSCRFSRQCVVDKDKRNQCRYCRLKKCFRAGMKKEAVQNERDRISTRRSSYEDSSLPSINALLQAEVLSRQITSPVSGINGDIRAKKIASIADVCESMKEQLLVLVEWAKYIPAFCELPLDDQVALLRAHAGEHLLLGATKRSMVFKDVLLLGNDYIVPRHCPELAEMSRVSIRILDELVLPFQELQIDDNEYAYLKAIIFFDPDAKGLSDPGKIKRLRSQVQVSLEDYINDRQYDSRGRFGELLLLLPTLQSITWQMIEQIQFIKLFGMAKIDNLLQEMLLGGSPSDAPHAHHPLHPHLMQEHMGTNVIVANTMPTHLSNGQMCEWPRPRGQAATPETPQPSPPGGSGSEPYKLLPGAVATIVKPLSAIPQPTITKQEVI
Vif A3G: inhibitors of Vif binding to APOBEC3G peptide, primary screen, biochemical, TR-FRET, GST-Vif 1-94, biotin-A3G peptide, dose response retest (AID 1117319); Virion infectivity factor (Human immunodeficiency virus type 1 group M subtype B (isolate …; TR-FRET GST-Vif / biotin-A3G peptide binding; higher % means a stronger effect; test concentration not given here; strong numbers were not always called active; inhibition, %, or IC50 in µM where a hit was titrated; 260,000 compounds, 0.57% hits;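 active = above the screen mean plus three standard deviations and confirmed in dose response; inconclusive = results disagree or hit not tested in dose response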;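 also: Vif residues 1-94 fused to GST binding biotinylated APOBEC3G peptide 110-148; 0% = full assay without inhibitor and 100% = GST in place of GST-Vif; retest series ran down from 100 µM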
E coli growth: E. coli growth inhibition, primary screen, OD600; Escherichia coli growth, 23 h; active compounds read low; OD600 absorbance (concentration not given with the values); 330,000 compounds, 0.21% hits;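 active = OD600 absorbance below the run mean of sample wells minus 3.6 SD, in any replicate, cut at about 0.56 in these data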;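 also: stock transfer was 300 nL into about 60 µL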
rRNA inh HTS: reduced GFP signal of wild-type E. coli, primary screen, bacterial rRNA inhibitor project, GFP/RFP fluorescence, OD600, single point; GFP signal change (wild-type ribosome), % (test concentration not listed); 350,000 compounds, 1.6% hits; E. coli WT GFP vs humanized-ribosome RFP mutants, 24 h; active compounds read low; DMSO median 0, no signal -100;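 active = significant combined selectivity score with lowered wild-type GFP, culture density cut under 30%, mutant RFP and density less affected; inactive = any of these conditions unmet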; also: one replicate is shown; some compounds called inactive have numbers as strong as hits
ALR H2O2 inh: inhibitors of human ALR sulfhydryl oxidase, primary screen, biochemical, H2O2 detection, HRP-luminol luminescence, single point | 290,000 compounds, 3.8% hits | inhibition, % (no concentration beside the values) | purified ALR, DTT oxidation | FAD-linked sulfhydryl oxidase ALR (Homo sapiens), P55789;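 active = mean and each replicate at 75% or more; inconclusive = only one of the two met; inactive = neither met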;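 also: stock transfer was 7.5 nL into about 7.5 µL; 0% = neutral wells and 100% = wells with inactivated enzyme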
MLL AF4-AF9 inh: inhibitors of AF4 peptide binding to AF9, primary screen, biochemical, AlphaScreen, biotin-AF4 peptide, FLAG-AF9, single point | AID 651704, 2012 | inhibition, % at 10 µM | Protein AF-9 (Homo sapiens), P42568 | 350,000 compounds, 0.47% hits;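 active = every replicate reaching a set inhibition limit, whatever the replicate mean, cut at about 25% in these data; inconclusive = mean inhibition reaches that limit but some replicates miss it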;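 also: 0% = plate neutral control median and 100% = total signal loss; the record names both 10 and 1 µM as test concentration; the first replicate is given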
Target sequence (P42568 whole entry, looked up): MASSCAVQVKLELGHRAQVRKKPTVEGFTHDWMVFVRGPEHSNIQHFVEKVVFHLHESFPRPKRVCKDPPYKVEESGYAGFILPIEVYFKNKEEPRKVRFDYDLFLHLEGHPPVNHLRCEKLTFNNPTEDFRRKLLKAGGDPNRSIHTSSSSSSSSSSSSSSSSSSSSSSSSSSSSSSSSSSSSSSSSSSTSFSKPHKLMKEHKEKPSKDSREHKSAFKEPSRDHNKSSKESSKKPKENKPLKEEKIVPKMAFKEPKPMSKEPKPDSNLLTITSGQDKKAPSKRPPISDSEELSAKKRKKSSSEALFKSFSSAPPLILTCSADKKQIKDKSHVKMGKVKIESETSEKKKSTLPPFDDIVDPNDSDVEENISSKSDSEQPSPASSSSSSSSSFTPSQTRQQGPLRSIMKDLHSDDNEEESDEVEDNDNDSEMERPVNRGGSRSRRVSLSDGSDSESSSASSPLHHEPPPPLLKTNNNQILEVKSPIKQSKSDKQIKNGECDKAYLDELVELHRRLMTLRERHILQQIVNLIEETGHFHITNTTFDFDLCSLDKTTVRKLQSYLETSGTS
FGF22 binding: binders of human FGF22 protein, primary screen, FGF22 synaptogenesis inhibitor project, biophysical, thermal shift, single point | recombinant FGF22 thermal shift, SYPRO orange fluorescence; percent of sucrose octasulfate shift, DMSO zero | Fibroblast growth factor 22 (Homo sapiens), Q9HCT0 | calls only at 9.99 µM | AID 651658, 2012 | 340,000 compounds, 1.5% hits;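 active = melting point raised past a set limit in the mean and every replicate; inconclusive = no clear call; three in four hits are not shown here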
rRNA inh HTS OD600: second read-out of rRNA inh HTS, no call of its own (marks repeat the call); OD600 change, %; measured here: OD600 growth;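 optical density of the mix in the first replicate; 0 = DMSO median and -100 = no signal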
rRNA inh HTS RFP: second read-out of rRNA inh HTS, no call of its own (marks repeat the call); RFP signal change, %; measured here: RFP humanized mutant strains;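 first replicate; 0 = DMSO median and -100 = no signal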
Numbers without * were called inactive; i = inactive; ? = inconclusive; / = no result given; + = active, no number; & = joins results of further samples. An excerpt; count on the stated rates, not on these rows.

SMILES	HNF4A DNA FP	Vif A3G	E coli growth	rRNA inh HTS	rRNA inh HTS OD600	rRNA inh HTS RFP	ALR H2O2 inh	MLL AF4-AF9 inh	FGF22 binding
COCCC(=O)N1CCC(Oc2ccc(C(=O)N3CCCCCCC3)cc2)CC1	-2.5	/	0.65	1	-1	-1.7	-3	-1.2	i
C[C@@H]1CN([C@H](C)CO)C(=O)c2cc(NC(=O)Cc3ccccc3)ccc2O[C@@H]1CN(C)Cc1ccc(Oc2ccccc2)cc1	/	/	/	-1	-11	26	/	0.6	i
Cc1ccc(-c2noc(N=O)c2NO)cc1	1.3	8%	0.61	-23	-19	-1.4	15	3.7	i
O=C(Nc1nc(N2C(=O)c3ccccc3C2=O)n(-c2ccccc2)n1)c1ccc(Cl)cc1	-4.9	-5%	0.73	/	/	/	-5	/	/
O=C(Cc1ccc([N+](=O)[O-])cc1)Nc1cccnc1	1.2	/	0.7	5	-2	-3.9	-3	-1.4	i
COc1ccc2c3c([nH]c2c1)[C@H](CO)N(C)CC31CN(C(=O)NC(C)C)C1	/	/	/	6	16	-3.6	/	-0.2	i
COc1cccc(/C=N/NC(=O)CSc2ccccc2C)c1OC	1.4	1%	/	/	/	/	-9	/	/
CC(C)C[C@@H]1CN(CCCC[C@H]2CNC(=O)C(=O)N2CCC2CCCCC2)C(=O)C(=O)N1CC1CCCCC1	3.0	/	/	0	-3	2.0	/	-1.7	i
COc1ccc(N2CC(C(=O)Nc3cccc(S(=O)(=O)N4CCCC4)c3)CC2=O)c(OC)c1 (stereo not drawn)	-3.7	-3%	0.64	2	8	0.0	/	1.1	i
Cc1cc(/C=C(\C#N)C(=O)NCC2CCCO2)c(C)n1-c1ccc(Cl)cc1 (stereo not drawn)	-2.2	?	0.7	/	/	/	13	/	/
CC(=O)NC[C@H]1[C@@H](c2ccc(-c3ccccc3)cc2)[C@@H](CO)N1C(=O)C1CCC1	/	/	/	-4	-11	0.7	/	0.5	i
CC1CC(=O)Nc2ccccc2N1S(=O)(=O)c1ccc(C#N)cc1 (stereo not drawn)	-3.3	16%	0.7	9	11	2.1	-3	-5.2	i
O=C(NCCNC(=O)c1ccccc1Br)c1ccccc1Br	1.2	/	0.68	2	10	-0.4	/	-0.6	i
COc1ccccc1N1C(=O)c2ccccc2NC1C(OC)OC (stereo not drawn)	-3.5	4%	0.71	/	/	/	-6	/	/
CC(C)C#Cc1ccc([C@H]2[C@@H](CO)N3C(=O)CN(C(=O)NC4CCCC4)C[C@@H]23)cc1	/	/	/	3	9	-0.2	/	-1.6	i
C[C@H]1CN([C@@H](C)CO)C(=O)c2cccc(NS(=O)(=O)c3ccc(Cl)cc3)c2O[C@@H]1CN(C)C(=O)Nc1ccc(F)cc1	/	/	/	-1	2	-1.9	/	-2.7	i
C[C@@H]1CN([C@@H](C)CO)C(=O)c2cccc(NC(=O)c3ccncc3)c2O[C@H]1CN(C)C	/	/	/	2	6	-1.8	/	-1.0	i
COC(=O)Cc1ccc(NC(=O)c2ccc3c(c2)C(=O)N(Cc2cccnc2)C3=O)cc1	1.5	/	0.73	2	7	-0.3	-2	-4.3	i
O=C(NC(=S)NCc1ccccc1)c1ccc2c(c1)OCO2	-1.1	/	0.65	/	/	/	9	/	/
CC1CC(C)CN(S(=O)(=O)c2ccc3c(c2)CC(C)N3C(=O)C2CCC2)C1 (stereo not drawn)	-1.5	/	0.72	2	-32	0.3	3	0.8	i
CCn1ccnc1CN(C)C(=O)C1CCC(=O)N(CCc2cccc(F)c2)C1 (stereo not drawn)	0.8	7%	0.66	5	5	-2.1	-2	-1.1	i
Cc1ccc(-c2c(C#N)c(N)n(-c3ccccc3)c(=O)c2C#N)cc1	-0.8	-47%	0.73	/	/	/	-3	/	/
N#Cc1ccc(-c2ccc([C@H]3[C@@H](CO)N4C(=O)CN(C(=O)C5CCCCC5)C[C@@H]34)cc2)cc1	/	/	/	-4	-5	0.3	/	1.0	i
COc1ccc2c(=O)c(-c3nc(C)cs3)coc2c1	1.1	-1%	0.7	/	/	/	-2	/	/
COc1ccc(Cl)cc1C(=O)NNC(=S)NC1CCCC1	-0.8	2%	0.69	10	14	-2.5	/	-3.0	i
COc1ccc(OCc2n(CC(=O)OC3CC(C)CCC3C(C)C)c3ccccc3[n+]2C)cc1 (stereo not drawn)	4.3	4%	0.66	-60	-81	-35	-5	?	i
CSC1=NCCN1C(=O)c1ccc2ccccc2c1	4.1	12%	0.7	1	-2	-1.0	-9	0.6	i
COc1cccc(S(=O)(=O)N(C)C[C@@H]2OCc3cnnn3CCCC(=O)N([C@H](C)CO)C[C@@H]2C)c1	4.1	-4%	/	1&0	-6&-3	-6.3&1.0	/	-1.0&0.0	i
CC(=O)c1ccc(NC(=O)Nc2ccc([N+](=O)[O-])cc2C)cc1	4.3	/	0.68	/	/	/	-8	/	/
CCCCCCN1C[C@@H](n2cc(C3CC3)nn2)[C@H](O)C[C@@H]1c1ccc(C)cc1	-7.3	-1%	/	-33	-63	5.2	/	1.4	i
COc1cccc(/C=N/NC(=O)c2cc(-c3cccn3C)n[nH]2)c1O	2.5	?	/	-36*	-25*	-11*	6	11	i
COc1ccc(S(=O)(=O)Nc2ccc3c(c2)OCCO3)cc1Cl	-2.1	-3%	0.68	/	/	/	-6	/	/
O=C(NC(=O)c1ccccc1)NC1(C(F)(F)F)OCCO1	/	-4%	0.68	/	/	/	-11	/	/
C[C@H]1CN([C@@H](C)CO)C(=O)Cc2cc(NS(=O)(=O)c3ccc(F)cc3)ccc2O[C@H]1CN(C)CC1CCCCC1	/	/	/	13	-41	12	/	0.4	+
CCC(=O)N1C[C@@H](C)[C@H](OC)CN(C)C(=O)c2cc(NS(C)(=O)=O)ccc2OC[C@@H]1C	/	/	/	1	3	-0.5	/	-1.5	i
Cc1ccc(-c2ccc([C@@H]3[C@@H](CO)N4CCCCN(C(=O)Nc5cccc(F)c5)C[C@@H]34)cc2)cc1	/	/	/	-4	-21	11	/	-6.8	i
O=C(CCN1C(=O)c2cccc([N+](=O)[O-])c2C1=O)NC1CCCCCC1	6.1	-7%	0.7	6	13	-2.0	-73	-5.6	i
CCN(CC)S(=O)(=O)c1cc(C(=O)Nc2ccccn2)ccc1C	2.1	25%	0.74	/	/	/	0	/	/
O=C(O)c1cc(-c2ccc(-c3ccc(F)cc3)o2)nc2ccccc12	-0.6	/	/	-38*	-13*	-4.2*	/	-6.5	i
C[C@H]1CN([C@@H](C)CO)C(=O)c2cc(N(C)C)ccc2O[C@H]1CN(C)S(C)(=O)=O	/	/	/	0	-4	-2.5	/	-21	i

By substructure, those above containing an NH in an aromatic ring.
SMILES	HNF4A DNA FP	Vif A3G	E coli growth	rRNA inh HTS	rRNA inh HTS OD600	rRNA inh HTS RFP	ALR H2O2 inh	MLL AF4-AF9 inh	FGF22 binding
COc1ccc2c3c([nH]c2c1)[C@H](CO)N(C)CC31CN(C(=O)NC(C)C)C1	/	/	/	6	16	-3.6	/	-0.2	i
COc1cccc(/C=N/NC(=O)c2cc(-c3cccn3C)n[nH]2)c1O	2.5	?	/	-36*	-25*	-11*	6	11	i

(continued)
SMILES	HNF4A DNA FP	Vif A3G	E coli growth	rRNA inh HTS	rRNA inh HTS OD600	rRNA inh HTS RFP	ALR H2O2 inh	MLL AF4-AF9 inh	FGF22 binding
O=C(NCCc1ccc2c(c1)OCO2)C1CCN(S(=O)(=O)c2ccc(Cl)cc2)CC1	0.5	-3%&-3%	0.7	7	4	-1.1	1	2.9	i
O=C(NCCc1ccc(Cl)cc1)C1COc2ccccc2O1 (stereo not drawn)	1.9	/	0.71	0	-6	1.0	-6	-0.9	i
OC[C@@H]1[C@H](c2ccc(-c3ccccc3)cc2)[C@H]2CN(Cc3ccccn3)CCCCN12	/	/	/	-2	1	1.9	/	1.5	i
CN1CCOCCOc2ccccc2OCCOCC1	4.5	/	0.68	2	5	-0.2	-6	0.0	i
COc1ccc2c(c1OC)C(C1c3c(cc4c(c3OC)OCO4)CCN1C)OC2=O (stereo not drawn)	-2.6	23%	0.63	/	/	/	6	0.6	/
COc1ccc(CN2c3ccccc3C(=O)CS2(=O)=O)cc1OC	/	/	/	9	5	0.7	/	-0.4	i
C[C@H]1CN([C@@H](C)CO)C(=O)c2cc(C#CCN(C)C)cnc2O[C@@H]1CN(C)C(=O)Cc1ccccc1	/	/	/	1	12	-2.3	/	-2.5	i
CCCCOc1ccc(NC2=NC3(CCCCC3)N=C(N)N2)cc1	1.2	3%	0.61	/	/	/	-6	/	/
COc1cccc(C(C)NC(=O)C2CCCC2)c1 (stereo not drawn)	-2.8	/	0.65	0	4	-2.0	-3	4.8	i
CCN(C)c1ccc(/C=N\n2nnnc2N)cc1	-1.3	2%	/	/	/	/	41	/	/
CCCc1nnc(NC(=O)CCC(=O)NCc2ccccc2)s1	5.1	/	0.7	7	7	0.7	/	-4.1	i
CCOc1ccc(C(=O)NC(=S)Nc2ccccc2N2CCOCC2)cc1Br	1.2	/	0.76	/	/	/	54	-8.5	i
Cc1ccc(CN2CCc3[nH]c(=O)[nH]c(=O)c3C2)cc1	8.1	/	0.69	5	4	0.2	1	-2.6	i
CSc1ccc(OC2(C)CCN(Cc3ccc(OC(F)(F)F)cc3)C2)cc1 (stereo not drawn)	0.4	/	/	9	-19	2.7	/	1.6	i
CS(=O)(=O)Nc1ccc2c(c1)[C@@H]1C[C@H](CC(=O)NCc3cccc(F)c3)O[C@@H](CO)[C@@H]1O2	/	/	/	-1	9	-1.7	/	-0.3	i
O=C(NC[C@@H]1[C@H](c2ccccc2)[C@H](CO)N1CC1CCCC1)c1ccccc1	/	/	/	-1	-10	0.7	/	1.4	i
Cc1ccc(S(=O)(=O)N2CCCCC2)cc1NC(=O)Cn1ccc(C(F)(F)F)n1	2.1	-1%	0.71	-4	5	-2.6	5	-6.2	i
COc1ccccc1NC(=O)N1CCCCN2[C@@H](CO)[C@H](c3ccc(-c4cccc(C)c4)cc3)[C@@H]2C1	/	/	/	-60	-70	-7.7	/	3.6	i
COCCNC(=O)C1CC(=O)N(CCc2ccccc2)C1 (stereo not drawn)	4.2	2%	0.71	/	/	/	-4	/	/
COc1cc(/C=N/NC(=O)CCc2n[nH]c(=O)[nH]c2=O)ccc1O	-1.8	15%	/	/	/	/	99*	/	/
CCC1CCCCN1CCCNC(=O)CSc1nc2nc(C)c(Cc3ccccc3Cl)c(C)n2n1 (stereo not drawn)	1.5	-3%	0.69	7	14	1.9	-1	2.0	i
O=C1CC(C(=O)Nc2ccc(O)c(C(=O)O)c2)C(c2ccccc2)O1 (stereo not drawn)	-2.0	8%	0.66	9	4	4.5	-13	3.5	i
